MenB inh: blocks the Mycobacterium tuberculosis MenB enzyme; P9WNP5; MenB enzyme assay, absorbance read-out; some hits fall short of the stated cut; inhibition, %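 (about 12 µg/mL by stock and volumes)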; hit rate 0.43% among 100,000; AID 540299;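 active = mean of two replicates above 30%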;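 note: 0% = no compound and 100% = wells with inactive enzyme; the first replicate is given; strong numbers were not always called active; inactives centre near -10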
Target sequence (P9WNP5 whole entry, looked up): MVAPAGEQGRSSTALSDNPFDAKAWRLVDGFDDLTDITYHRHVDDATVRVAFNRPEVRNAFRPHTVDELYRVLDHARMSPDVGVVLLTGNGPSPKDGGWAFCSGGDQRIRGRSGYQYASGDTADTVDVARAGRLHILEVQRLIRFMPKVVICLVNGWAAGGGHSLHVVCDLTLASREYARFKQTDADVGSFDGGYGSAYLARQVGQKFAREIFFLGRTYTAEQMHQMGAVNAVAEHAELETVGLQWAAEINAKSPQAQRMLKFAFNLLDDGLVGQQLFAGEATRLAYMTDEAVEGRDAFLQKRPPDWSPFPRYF
MbtI inh: MbtI salicylate synthase inhibition; P9WFX0; purified MbtI enzyme, fluorescence intensity read-out; inhibition, %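 (about 17 µg/mL by stock and volumes)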; hit rate 0.89% among 100,000; AID 493033;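 active = above 50% in both replicates, above 80% if mildly self-fluorescent; inactive = the rest, strongly fluorescent compounds included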;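 note: 0% = mean of negative and 100% = mean of positive controls; one replicate is shown; some compounds called inactive have numbers as strong as hits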
Target sequence (P9WFX0 whole entry, looked up): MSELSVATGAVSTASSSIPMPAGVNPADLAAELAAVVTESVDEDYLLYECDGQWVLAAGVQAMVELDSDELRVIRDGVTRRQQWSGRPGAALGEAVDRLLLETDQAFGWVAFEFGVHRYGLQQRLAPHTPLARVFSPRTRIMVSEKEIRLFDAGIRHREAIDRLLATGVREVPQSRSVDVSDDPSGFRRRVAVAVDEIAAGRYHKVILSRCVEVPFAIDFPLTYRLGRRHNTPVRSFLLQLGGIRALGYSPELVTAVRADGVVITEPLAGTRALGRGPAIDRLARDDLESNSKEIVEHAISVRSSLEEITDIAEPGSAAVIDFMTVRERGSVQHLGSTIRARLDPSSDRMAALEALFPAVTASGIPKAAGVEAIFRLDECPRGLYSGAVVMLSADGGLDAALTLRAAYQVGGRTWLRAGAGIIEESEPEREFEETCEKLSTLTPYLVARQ
Polio RdRp inh: poliovirus RNA polymerase inhibition | P03300 | poliovirus polymerase elongation, fluorescence polarization; stronger effect = lower value | % elongation, % (compound at 16.7 µg/mL) | hit rate 0.66% among 150,000; in the data active = % elongation below about 90%; note: some results filed as inactive read as strong as hits
Polio RdRp inh intensity: further read-out of Polio RdRp inh, marked with its call; % elongation; measured here: total intensity read-out; formula for this scale not given here;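 total fluorescence in place of polarization; lower means less elongation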
Active calls of the source: *; i = inactive; · = no result given. Rows were taken by chance. Share with any hit: about 1.8%.

SMILES	MenB inh	MbtI inh	Polio RdRp inh	Polio RdRp inh intensity
COc1ccc(-c2noc(N3CCCC(C(=O)NC4CCCc5ccccc54)C3)n2)cc1 (configuration not stated)	-16	-21	102	102
CCC1CCCCN1C(=S)NC(=O)c1ccccc1 (configuration not stated)	1	9	97	102
NC(=O)CNC(=O)c1ccc(Oc2ccccc2)cc1	-22	1	104	104
CNC(=O)c1ccccc1NCC(=O)O	-9	i	103	104
C=CCN(CC(N)=O)S(=O)(=O)c1ccccc1C(F)(F)F	10	-29	104	106
CCC1(C)Cc2c(C#N)c(N)n(-c3ccccc3)c(=O)c2CO1 (configuration not stated)	-9	·	106	105
Oc1c(CN2CCCCCC2)cc(Cl)c2cccnc12	-12	75	119	123
Cc1c(S(=O)(=O)NC2CCCCNC2=O)sc2ccc(Cl)cc12 (configuration not stated)	-14	10	102	105
CCOC(=O)c1cnc(SCC(=O)OCC(=O)N2CCc3ccccc32)nc1N	-11	-6	·	·
CCN(CC)CCN1COc2c(cc(Cl)c3cccnc23)C1	·	4	84*	80*
COc1cccc(C(=O)OCC(=O)c2ccc(-c3ccccc3)cc2)c1	·	0	102	105
CN1C(=O)CS/C1=C\C#N	1	14	102	100
NC(=S)c1cccc(Oc2ccccc2)c1	-69	30	87*	85*
N#CC1=C(N)OC2=C(CCc3ccccc32)C1c1ccccc1Cl (configuration not stated)	-12	·	117	121
CCOC(=O)c1c(NC(C)=O)c2c3c(sc2n1Cc1nc(-c2ccccc2OC)oc1C)CCCC3	-20	6	103	99
Cc1ccc(CN2C(=O)CCC2(C)C(=O)NCCC(C)C)cc1 (configuration not stated)	-20	-2	104	103
CCCNC(=O)Cn1c(-c2cccs2)cc2ccccc21	-10	71	107	100
O=C(CSc1nc(C(F)(F)F)cc(=O)[nH]1)N1CCN(c2ccccc2)CC1	1	4	105	103
O=C(COc1ccc(F)cc1)N/N=C1\CCS(=O)(=O)c2ccc(F)cc21	-7	2	103	107
CCc1ccccc1-n1nnc(C(=O)NCc2cccs2)c1N	11	-8	101	103
COCCNC(=S)N1CCC(c2nc(-c3ccc(N(C)C)cc3)no2)CC1	-50	0	102	103
CC1CCCC(C)N1C(=O)c1ccccc1NS(=O)(=O)c1ccc(F)cc1 (configuration not stated)	·	-6	101	100
CCC(C)C(NC(=O)c1cc(C)oc1C)C(=O)O (configuration not stated)	-36	18	99	102
Cc1cc(NC(=O)CSc2nccc(=O)[nH]2)no1	-37	4	104	108
CN1C(=O)NC(=O)/C(=C\c2ccc(O)cc2)C1=O	-68	19	96	92

Filtered by structure, the compounds so far containing fluorine
SMILES	MenB inh	MbtI inh	Polio RdRp inh	Polio RdRp inh intensity
C=CCN(CC(N)=O)S(=O)(=O)c1ccccc1C(F)(F)F	10	-29	104	106
O=C(CSc1nc(C(F)(F)F)cc(=O)[nH]1)N1CCN(c2ccccc2)CC1	1	4	105	103
O=C(COc1ccc(F)cc1)N/N=C1\CCS(=O)(=O)c2ccc(F)cc21	-7	2	103	107
CC1CCCC(C)N1C(=O)c1ccccc1NS(=O)(=O)c1ccc(F)cc1 (configuration not stated)	·	-6	101	100

Next section.
SMILES	MenB inh	MbtI inh	Polio RdRp inh	Polio RdRp inh intensity
C=CCn1c(C)cc(C(=O)COC(=O)c2ccccc2O)c1C	-5	-1	108	111
CC(NC(=O)c1ccc2c(=O)n3c(nc2c1)CCCCC3)c1ccccc1 (configuration not stated)	-17	7	100	100
COc1ccc(-c2cc(C(F)(F)F)nc(NCc3cccnc3)n2)cc1OC	-92	117	97	102
CCOc1ccc(CCCC(=O)O)cc1C	-21	5	100	102
O=C(Nc1ccccc1)Nc1c[nH]c(=O)[nH]c1=O	-9	4	100	103
COC(=O)c1ccc(S(=O)(=O)NCc2ccc(S(N)(=O)=O)cc2)n1C	-28	9	104	103
CCOC(=O)/C(C#N)=C/NC1CCCCNC1=O (configuration not stated)	11	11	100	97
Cc1cc(NC(=O)C2CCC2)n(-c2nc3ccccc3s2)n1	·	2	101	95
O=C(NCC(=O)N1CCCC1)C1CCCCC1	10	-1	100	103
O=S(=O)(Nc1ccccc1N1CCCCC1)c1cccc2nonc12	1	-2	111	118
O=C(CCCOc1ccccc1)N1CCN(c2ccccn2)CC1	-22	77	104	108
COc1cc(N)ccc1OC(C)C	-67	-6	102	102
CN(Cc1ccccc1)S(=O)(=O)c1cc2c3c(c1)CCC(=O)N3CCC2	3	16	100	104
C=CCn1c(=NC(C)=O)sc2cc(F)ccc21	-10	-3	101	102
Cc1cccc(NC(=O)Nc2noc3c2COc2ccccc2-3)n1	-9	-13	102	103
O=C(Cc1c(F)cccc1Cl)Nc1ccc(N2CCOCC2)cc1N1CCOCC1	5	-2	99	103
Cc1ccc2[nH]c(=O)c(CNc3ccc(N4CCCCC4)cc3C(=O)N3CCOCC3)cc2c1	7	2	104	99
Cc1cc(N2CCCC2=O)cc(C)c1CN1C(=O)c2ccccc2C1=O	-4	-3	100	100
N#CCSc1nc2ccccc2c(=O)n1-c1ccccc1	24	8	102	103
CCCc1cc(=S)sc(N)n1	-341	·	99	91
COc1cc(Cl)ccc1N=Cc1c(O)c2c(=O)n(C)c(=O)n(C)c2n(C)c1=O	-18	12	100	94
COC(=O)C1CCN(S(=O)(=O)c2ccc(Cl)cc2)CC1	4	5	·	·
CCC(C)N1CCN(CC2CC=CCC2)CC1 (configuration not stated)	2	·	99	99
CC(C(=O)Nc1ccc2c(c1)OCO2)N1CCN(S(=O)(=O)c2ccc(Cl)s2)CC1 (configuration not stated)	-2	16	103	102
Cc1ccc(/C=N/O)cc1	15	-1	99	102

Compound profiles, from the list above.
`CC(NC(=O)c1ccc2c(=O)n3c(nc2c1)CCCCC3)c1ccccc1` (configuration not stated) as listed: MenB inh: -17; MbtI inh: 7; Polio RdRp inh: 100; Polio RdRp inh intensity: 100
`Cc1cc(NC(=O)CSc2nccc(=O)[nH]2)no1` as listed: MenB inh: -37; MbtI inh: 4; Polio RdRp inh: 104; Polio RdRp inh intensity: 108
`CCOc1ccc(CCCC(=O)O)cc1C` as listed: MenB inh: -21; MbtI inh: 5; Polio RdRp inh: 100; Polio RdRp inh intensity: 102

More records
SMILES	MenB inh	MbtI inh	Polio RdRp inh	Polio RdRp inh intensity
N#Cc1ccc(COC(=O)C(Cc2ccccc2)n2cnnn2)cc1 (configuration not stated)	-23	-8	101	104
N/C(=N\OCC(=O)Nc1ccccc1)c1nonc1N	-13	-1	101	104
Nc1nc(-c2ccc(NC(=O)c3ccco3)cc2)cs1	-11	12	99	99
Cn1nc2c3ccccc3n(Cc3ccccc3)c2nc1=S	-3	-12	103	108
CCOC(=O)c1cc(-c2ccc(/C=C(\C#N)C(N)=C(C#N)C#N)o2)ccc1Cl	-154	10	93	117
CN(Cc1ccccc1)c1c2c(nc3nncn13)CCC2	6	-8	99	101
Cc1ccc(NC(=O)COC(=O)C2(CC(=O)N3CCOCC3)CCCC2)cc1C	-27	7	102	108
CCS(=O)(=O)c1ccc2oc(SCC(=O)NC(C)C3CC4CCC3C4)nc2c1 (configuration not stated)	-2	-6	104	108
CCOC(=O)c1c(CN2CCCCC2)n(-c2ccccc2)c2cc(Br)c(OC)cc12	0	·	103	105
CC(=O)O/N=C(\N)c1ncon1	17	-3	98	100
CC(=O)N1Cc2ccccc2C(C)CC12CCCC2 (configuration not stated)	-7	-7	102	103
CCOC(=O)c1c(NC(=O)C(C)Sc2nncn2C)sc2c1CCCC2 (configuration not stated)	-15	-16	105	109
O=P(NC1CCCCC1)(NC1CCCCC1)Oc1ccccc1	-10	14	97	101
O=C(CSc1nc(-c2ccccc2)cc(=O)[nH]1)c1ccccc1	-7	4	102	108
Cc1cc(C2C(=O)CC(=O)CC2c2ccccc2)on1 (configuration not stated)	-5	·	102	103
O=C(CC(C(=O)c1ccccc1)n1cccn1)c1ccccc1 (configuration not stated)	-29	·	105	93
Cc1cccc(-n2c(C)nc3cc(C(=O)NCCN4CCOCC4)ccc32)c1	6	0	99	98
OCCOc1nc(N2CCOCC2)nc(N2CCOCC2)n1	-6	-13	102	102
O=C(NCC1CCCO1)c1ccccn1 (configuration not stated)	5	-6	102	104
Cc1ccc(N2NC3(CC(C)CC(C)(C)C3)NC2=S)cc1C (configuration not stated)	-36	·	105	110
Cc1cc(Br)c2[nH]cc(CCN)c2c1	-13	-1	100	102
N#Cc1ccccc1NC(=O)c1coc2ccccc2c1=O	-22	2	105	101
Oc1c(Cl)cc(Cl)cc1C1Nc2cc(C(F)(F)F)ccc2-n2cccc21 (configuration not stated)	0	-16	104	105
Cc1cc(C(F)(F)F)nn1CC(=O)Nc1ccc(CC#N)cc1	-11	·	102	99
O=C(c1cccc(I)c1)N1CCN(c2ccccc2O)CC1	·	-4	102	94
Going on with the list:
SMILES	MenB inh	MbtI inh	Polio RdRp inh	Polio RdRp inh intensity
O=C(CSc1nc2ccccc2[nH]1)N(c1ccccn1)c1ccccn1	-18	-4	97	112
CCCN1C(=O)/C(=C/c2ccc(O)c(OC)c2)SC1=S	-64	-4	114	146
Cc1cccc(N2CCN(C(=O)CN3C(=O)/C(=C\c4cccc(F)c4)Oc4ccccc43)CC2)c1C	5	32	100	97
O=C1NCCCCC1NS(=O)(=O)c1ccc(-c2ccccn2)s1 (configuration not stated)	-34	3	103	105
CCN(CC)S(=O)(=O)c1ccc(N(C)Cc2ccc(C(F)(F)F)cc2)nc1	-25	-6	99	97
COCC(C)NC(=O)NC1CC(=O)N(c2ccc(F)cc2)C1 (configuration not stated)	-7	-1	100	104
COc1cccc(/C=N/NC=O)c1	-1	36	98	102
O=C1OC(c2ccccc2)OC(=O)C1=Cc1cccs1 (configuration not stated)	-4	65*	101	102
CCN1CCN(c2ccc(NC(=O)[C@H](Cc3ccccc3)N3Cc4ccccc4C3=O)cc2)CC1	-35	4	101	97
CC(C(=O)N1CCOCC1)C1SC(=O)NC1=O (configuration not stated)	-8	-4	97	101
CS(=O)(=O)NCC(c1cccnc1)N1CCN(Cc2ccccc2)CC1 (configuration not stated)	12	-3	100	97
COc1ccc(C(=O)NCCC2=CCCCC2)cc1	10	·	106	99
COc1ccccc1C(=O)NCCCn1cc(Br)c(C)n1	-4	-5	99	102
Cc1[nH]c(-c2ccc(F)cc2)cc1C(=O)N1CCCC(C)C1 (configuration not stated)	-10	-180	102	104
Cc1ccc(S(=O)(=O)NCc2ccc(C(=O)NC3CCC(C)CC3)cc2)cc1 (configuration not stated)	-3	4	98	102
c1csc(-c2noc(CSc3ccc4ccccc4c3)n2)c1	-37	-15	105	112
Cc1onc(-c2ccccc2Cl)c1C(=O)C(C#N)c1ccccn1 (configuration not stated)	-33	-8	104	115
O=C(CSc1nc2ccccc2c(=O)n1C1CCCCC1)NCc1ccco1	6	-5	102	104
Cc1ccc(C2N(c3ccccc3)CCN2c2ccccc2)s1	2	·	110	111
Cc1ccccc1NC(=O)CNc1ccccc1N1CCCCC1	-21	-11	102	106
COC(=O)c1c(N)n(CCc2ccccc2)c2nc3ccccc3nc12	-20	103	102	102
Oc1ccc2nc(N3CCOCC3)sc2c1	13	-2	103	100
O=C(COC(=O)C1CC(=O)N(CCc2ccccc2)C1)Nc1cccnc1Cl (configuration not stated)	-11	10	101	100
COc1ccc2oc(C(=O)CCC(=O)O)c(N)c2c1	-8	11	103	103
CC12CCC3C(CCC45CC(=O)CCC34C5)C1CCC2=O (configuration not stated)	-4	4	100	101

In another format: entries from further up.
| Compound | MenB inh | MbtI inh | Polio RdRp inh | Polio RdRp inh intensity |
| --- | --- | --- | --- | --- |
| Cc1ccc(S(=O)(=O)NCc2ccc(C(=O)NC3CCC(C)CC3)cc2)cc1 (configuration not stated) | -3 | 4 | 98 | 102 |
| c1csc(-c2noc(CSc3ccc4ccccc4c3)n2)c1 | -37 | -15 | 105 | 112 |

2 compounds picked at random from those above:
SMILES	MenB inh	MbtI inh	Polio RdRp inh	Polio RdRp inh intensity
COc1ccccc1C(=O)NCCCn1cc(Br)c(C)n1	-4	-5	99	102
Cc1ccccc1NC(=O)CNc1ccccc1N1CCCCC1	-21	-11	102	106

Other structures:
SMILES	MenB inh	MbtI inh	Polio RdRp inh	Polio RdRp inh intensity
CC(O)C(=O)NS(=O)(=O)c1ccccc1 (configuration not stated)	-65	-8	106	101
Cn1cnnc1SCC(=O)NC1CC1	·	-7	103	104
O=C(Nc1cccs1)N1CCN(C(=O)C2CCCO2)CC1 (configuration not stated)	11	26	103	105
Nc1n[nH]c(N)c1N=Nc1ccc(Cl)cc1	-73	6	101	100
CS/C(N)=N\N=C\c1ccccc1O	-29	14	102	98
OC(CNCc1ccccn1)COc1ccc(OCC(O)CNCc2ccccn2)cc1 (configuration not stated)	27	-1	99	102
Cc1ccc2c(c1)-c1c(ssc1=Nc1ccc(S(N)(=O)=O)cc1)C(C)(C)N2	-27	1	97	100
CCCCNc1ncnc2c1nc1n2CCCCC1	-6	-16	101	102
CCc1cc2c(=O)c(-c3nc(C)cs3)c(CCC(=O)O)oc2cc1O	2	19	102	104
Cc1ccccc1S(=O)(=O)Cc1ccc(C(=O)n2ccnc2)o1	8	-12	96	110
COC(=O)CSC1=C(C#N)C(c2ccc(C(C)C)cc2)CC(=O)N1 (configuration not stated)	-3	1	104	102
O=C(/C=C/c1ccco1)Nc1ccc(Br)cc1	-39	46	102	100
CC(C)N(c1ccccc1)c1ccc(NC(=O)c2ccccn2)cc1	-34	-4	102	109
c1ccc(NCc2cccs2)nc1	-6	27	103	105
O=C(Nc1nnc(C2=COCCO2)o1)c1cccc2ccccc12	-13	9	101	103
CCOC(=O)c1[nH]c(COc2ccc(C#N)cc2)c(C(=O)OCC)c1C	4	-3	99	97
